TRPML1 blocker – blocks the human TRPML1 channel; TRPML1-inducible cells, Ca2+ dye fluorescence, FDSS; stronger effect = lower value; inhibition of EC80 agonist-evoked calcium signal; activity change, negative = inhibition, % (no concentration beside the values); 390,000 tested, 0.02% active; AID 624415; in the data active means activity change below about -50%; inconclusive means about -30% to -50%; inactive means above about -30%;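 note: stimulus is agonist 54-4 at its EC80 concentration; % is set by controls: 0 for no effect and ±100 for the full control effect; compound concentration not given in the record; the text of the record puts the active cut at -80%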
Target sequence (Q9GZU1 whole entry, looked up): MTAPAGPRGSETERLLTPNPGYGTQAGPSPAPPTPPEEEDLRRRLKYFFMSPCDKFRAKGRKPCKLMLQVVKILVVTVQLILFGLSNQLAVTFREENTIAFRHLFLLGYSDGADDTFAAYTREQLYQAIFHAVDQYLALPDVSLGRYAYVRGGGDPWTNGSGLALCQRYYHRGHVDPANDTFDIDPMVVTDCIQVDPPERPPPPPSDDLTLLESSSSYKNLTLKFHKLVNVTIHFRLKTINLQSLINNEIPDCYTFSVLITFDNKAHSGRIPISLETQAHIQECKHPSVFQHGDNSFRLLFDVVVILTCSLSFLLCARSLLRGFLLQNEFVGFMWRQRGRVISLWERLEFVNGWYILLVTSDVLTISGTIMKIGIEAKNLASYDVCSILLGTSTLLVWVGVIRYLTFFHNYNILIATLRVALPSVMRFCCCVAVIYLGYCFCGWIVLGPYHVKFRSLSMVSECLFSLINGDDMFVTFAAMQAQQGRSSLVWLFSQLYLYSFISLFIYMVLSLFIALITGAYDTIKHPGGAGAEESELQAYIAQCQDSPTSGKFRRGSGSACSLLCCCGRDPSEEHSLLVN
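TRPML1-DL cells, Tet-induced overnight (~16 h, 37 °C) at 1,500 cells/well, were loaded with Ca8 no-wash dye plus quencher for 45-90 min at room temperature. Compounds were pinned during FDSS kinetic reading; agonist 54-4 at EC80 (4 uM final) then added.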
ClpP mod – qHTS Assay for Activators of ClpP. 340,000 tested, 1.9% active. AID 651965, 2013. purified B. subtilis ClpP, FRET peptide cleavage, 20 min. Potency, µM (titrated, usually from 57.5 µM), inactives show at the top dose activity change, negative = active; active = well fitted falling curve with a large enough effect; inconclusive = small, poorly fitted or top-dose-only effect; inactive = no such curve, though single readings can be large or run the other way; note: potency is the fitted concentration of half-maximal effect; the source files actives as falling curves though it sought activators and does not explain the sign; nearly all actives have a fitted effect of over 65% in size; many hits overshoot -100%
Target sequence (P80244 whole entry, looked up): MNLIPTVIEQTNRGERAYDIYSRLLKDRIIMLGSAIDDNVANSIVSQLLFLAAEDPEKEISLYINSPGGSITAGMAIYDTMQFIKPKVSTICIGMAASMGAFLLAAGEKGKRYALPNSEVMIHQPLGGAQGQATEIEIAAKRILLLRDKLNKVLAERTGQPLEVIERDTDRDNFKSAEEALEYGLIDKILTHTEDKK
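FRET quenching reversal measured ClpP activation: 10 microg/mL B. subtilis ClpP at pH 8 with the FRET-FV decapeptide, read at 430 nm after 320 nm excitation. The 20-min minus 0-min signal was scaled between DMSO/no-enzyme wells and ADEP (5.8 microM final).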
Sfp inh – Sfp phosphopantetheinyl transferase inhibition | Potency, µM, without a hit: max response, negative = inhibition, hits mostly inhibitors | AID 1490 | 310,000 tested, 3.5% active | Q9F4F7 | Biochemical Sfp PPTase activity, qHTS; active = well fitted inhibition curve with a large enough effect; inconclusive = small, poorly fitted or top-dose-only effect, or another doubt; inactive = no such curve, though single readings can be large or run the other way;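 note: the enzyme is Sfp with the accession as filed and its product quenches rhodamine fluorescence; potency is the fitted concentration of half-maximal effect; 0% = enzyme reaction without inhibitor and -100% = no enzyme wells; top concentration of the series not given in the record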
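Step 1, compound plus 15 nM Sfp-PPTase, 15 min, room temperature. Step 2, add rhodamine-CoA (5 uM) and BHQ-2-YbbR (12.5 uM). Step 3, read 525/598 nm fluorescence at 0 and 30 min.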
gsp agonist – agonists of gsp mutant (McCune-Albright syndrome); gsp mutant cells, cAMP HTRF, 30 min; control for the full effect not named in the record; Potency, µM (doses to about 76.9 µM), without a hit: at the top dose activation (cAMP increase), most hits filed as activators; 340,000 tested, 0.13% active; active = well fitted activation curve with a large enough effect; inconclusive = small, poorly fitted or top-dose-only effect, or another doubt; inactive = no such curve, though single readings can be large or run the other way; cell line not stated here;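 note: phosphodiesterase inhibitor Ro 20-1724 added with compounds to block cAMP breakdown; potency is the fitted concentration of half-maximal effect; nearly all actives have a fitted effect of over 60% in size; about a fifth of the inactives were tested at one dose only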
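Cells in DMEM/10% FBS with G418 were pretreated with compounds in DMSO plus […] (300 uM stock) for 30 min at 37C. cAMP was measured by HTRF (cAMP-d2 plus anti-cAMP antibody-K) after 30 min at room temperature.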
gsp antag – antagonizes gsp, the McCune-Albright syndrome mutation | gsp-mutant cells, cAMP HTRF, 30 min; control for the full effect not named in the record | Potency, µM (doses to about 76.9 µM), for the others: at the highest dose activity change, negative = inhibition, usual class: inhibitors | 340,000 tested, 0.4% active; active = falling curve of any shape with a large fitted effect; inconclusive = falling curve, mostly with a smaller effect; inactive = flat or rising curve; cell line not stated here;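 note: intracellular cAMP measured with PDE inhibitor Ro 20-1724 present during compound exposure; potency is the fitted concentration of half-maximal effect; % is set by controls: 0 for no effect and ±100 for the full control effect; nearly all actives have a fitted effect of over 65% in size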
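G418-selected cells were plated in DMEM/10% FBS for 16-24 h at 37C, then treated with compounds plus the PDE inhibitor […] (300 uM solution added) for 30 min at 37C. Intracellular cAMP was measured by HTRF after 30 min lysis at room temperature.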
Menin-MLL FL inh – displaces fluorescein MLL peptide from human menin; Fluorescence polarization, fluorescein-MLL peptide displacement from menin; FP activity change, % at 61.4 µM; 290,000 tested, under 10 active; AID 1766; inconclusive = falling polarisation curve, or a change in total fluorescence; inactive = total fluorescence flat and polarisation flat or rising; no compound was filed as active; the % refers to the polarisation; negative = inhibition;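 note: % of control where 0% means no effect; inhibitors lower the polarisation; unlabelled MLL peptide was the positive control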
TRPV1 PAM – enhances activation of the human vanilloid receptor TRPV1 | Q8NER1 | AID 540277 | 320,000 tested, 0.02% active | potentiation, % at 8.33 µM | TRPV1-expressing cells, Fluo-8 calcium influx, capsaicin EC20 potentiation; host cell line not named in the record; control for the full effect not named in the record; active means potentiation above 80%; inconclusive means 30% to 80%; inactive means below 30%; note: 0% is about no effect
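Cells expressing TRPV1 were dye-loaded with Fluo-8 and read kinetically: 10 s baseline, 3 min after compound (agonist portion), then 2 min after EC20 capsaicin (allosteric enhancer portion). Calcium-bound dye fluorescence at 480/520 nm.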
* marks the source's active call; other numbers are inactive results; ? = inconclusive; . = no result given; [ ] = dose if it differs, or a comment.

Compound	Menin-MLL FL inh	TRPML1 blocker	ClpP mod	Sfp inh	TRPV1 PAM	gsp agonist	gsp antag
CCOC(=O)c1ccc(NC(=O)c2nc[nH]c2C(=O)NC2CCN(C(=O)OC(C)(C)C)CC2)cc1	-0.7	-16	-20%	18%	3	-37%[inhibitor]	9%
COC(=O)[C@H](CCSC)NC(=O)Nc1ccc(OC)cc1	1.8	3	-0.5%	4%	4	-37%[inhibitor]	-1%
CC(=O)c1ccc(NC(=O)CSc2nc3nc(C)cc(C)n3n2)cc1	3.8	-15	1.8%	16%	12	?	-2%
O=C(CSc1ccc(F)cc1)Nc1ccc2c(c1)C(=O)NC2=O	-2.6	1	1.8%	7%	3	5%	6%
COc1cccc(-c2cc(C(=O)NC3CCCC3)no2)c1	-1.4	1	0.1%	-13%	-1	-37%[inhibitor]	-6%
CNC(=S)N/N=C/c1c(C(=O)OC)cnn1-c1ccc(F)cc1F	1.1	2	.	15%	-1	-1%[15.4 µM]	-4%
O=C(NCCc1cnn(-c2ccccc2)c1)c1cc(COc2c(F)cccc2F)on1	-7.0	-8	.	18%	10	?	-32%
Cc1ccc(OCc2ccc(C(=O)O)o2)cc1C	-4.1	-17	-2.4%	0%	14	13%	-14%
c1ccc2c(c1)oc1c(Nc3ccc(CN4CCOCC4)cc3)ncnc12	2.3	4	-1.0%	-5%	-8	7%	?
Cc1nnc(SCC(=O)N2CCN(c3cccc(Cl)c3)CC2)n1C1CC1	.	6	1.6%	.	-4	9%	0%
Cc1noc(C)c1S(=O)(=O)N(CCc1ccccc1)Cc1ccccc1	0.9	20	1.1%	5%	-29	15%	-3%
CCn1c(C)nc2cc(S(=O)(=O)C(F)F)ccc21	1.2	7	-2.1%	4%	-10	13%	-6%

Filtered by structure, the compounds so far containing a halogen.
Compound	Menin-MLL FL inh	TRPML1 blocker	ClpP mod	Sfp inh	TRPV1 PAM	gsp agonist	gsp antag
O=C(CSc1ccc(F)cc1)Nc1ccc2c(c1)C(=O)NC2=O	-2.6	1	1.8%	7%	3	5%	6%
CNC(=S)N/N=C/c1c(C(=O)OC)cnn1-c1ccc(F)cc1F	1.1	2	.	15%	-1	-1%[15.4 µM]	-4%
O=C(NCCc1cnn(-c2ccccc2)c1)c1cc(COc2c(F)cccc2F)on1	-7.0	-8	.	18%	10	?	-32%
Cc1nnc(SCC(=O)N2CCN(c3cccc(Cl)c3)CC2)n1C1CC1	.	6	1.6%	.	-4	9%	0%
CCn1c(C)nc2cc(S(=O)(=O)C(F)F)ccc21	1.2	7	-2.1%	4%	-10	13%	-6%

Additional results follow:
Compound	Menin-MLL FL inh	TRPML1 blocker	ClpP mod	Sfp inh	TRPV1 PAM	gsp agonist	gsp antag
CCN(C[C@H]1N[C@@](C)(C(=O)OC)[C@H]2C(=O)N(Cc3ccccc3)C(=O)[C@@H]12)C(=O)C1CCCCC1	.	1	-0.6%	.	.	.	-6%
CCn1c(/C=C/c2ccccc2[N+](=O)[O-])nc2ccccc2c1=O	-2.4	-3	.	12%	-15	-5%	-15%
Cc1nn(C)cc1C(=O)Nc1cc(Oc2ccc(Cl)cc2)cc([N+](=O)[O-])c1	-1.8	12	0.5%	1%	-10	19%	3%
COC(=O)c1ccc(NC(=O)C2CCCCC2C(=O)O)cc1 (stereo not given)	-0.7	-4	2.5%	15%	-5	-1%	-4%
CC1CCCC(NC(=O)COC(=O)c2ccccc2NC(=O)c2ccco2)C1C (stereo not given)	-2.6	-8	-8.4%	12%	10	-31%[inhibitor]	10%
COc1ccccc1N1CCN(C(c2cccs2)C(C)NC(=O)C(=O)N2CCOCC2)CC1 (stereo not given)	3.4	45	-0.1%	0%	-10	1%	-3%
O=C(COC(=O)c1ccco1)Nc1cc(S(=O)(=O)N2CCOCC2)ccc1Cl	.	7	.	.	.	?	1%
O=C(NCCc1ccc(Cl)cc1)c1ccc2nc[nH]c2c1	7.7	-22	.	-16%	-12	-2%[15.4 µM]	-1%
CN1CCN(C(=O)/C=C/c2ccc(C#N)cc2)CC1	4.1	9	-0.5%	11%	4	-4%[15.4 µM]	18%
Cc1ccc(C(=O)O)cc1S(=O)(=O)NCC1CCCO1 (stereo not given)	0.9	34	-1.4%	24%	2	-1%	13%
C/C(=N\Nc1c(Cl)c(Cl)nc(C(=O)O)c1Cl)c1ccc(O)cc1	-1.2	-19	.	3%	8	?	-1%
CCOC(=O)C1=CN(Cc2ccc(Br)cc2)S(=O)(=O)N(C)C1C (stereo not given)	.	21	-3.5%	.	.	.	1%
O=C(N/N=C/c1c(F)c(F)c(F)c(F)c1F)c1ccc(Cn2cc(Br)cn2)o1	0.0	-4	-3.1%	7%	1	-31%[inhibitor]	-11%
C/C(=C/C#N)Nc1ccc(C)cc1	-0.5	9	.	12%	11	6%	-1%
Cc1ccc(C(=O)NCCc2n[nH]c(=S)n2C)cc1	-4.7	17	0.6%	3%	14	7%	-11%
CCCCn1c(N)c(N(CCOC)C(=O)C2CCN(S(=O)(=O)c3ccc(Cl)cc3)CC2)c(=O)[nH]c1=O	.	25	-2.3%	-1%	-27	6%[15.4 µM]	5%
COc1ccc(/C=C2\C(=O)N(c3c(Cl)cc(Cl)cc3Cl)N=C2NC(=O)c2cccc([N+](=O)[O-])c2)cc1	6.8	48	0.1%	?	6	-59%[inhibitor]	-31%
CCOC(=O)c1ccccc1NC(=O)COC(=O)CSc1ccccc1	.	6	-8.3%	.	6	-35%	5%
Nc1nccc(-c2nn(-c3ccc(Cl)cc3)ccc2=O)n1	-3.0	2	-3.4%	-4%	-7	-24%	0%
Cn1cnc(S(=O)(=O)NC2CCN(Cc3c(F)cccc3Cl)CC2)c1	.	13	-1.8%	17%	-2	-21%	7%
CC(C)C(c1nnnn1C1CCCC1)N1CCC(C(N)=O)CC1 (stereo not given)	-8.6	1	.	13%	8	13%	8%
Cc1ccccc1NC(=O)c1ccccc1NC(=O)Cc1cccc2ccccc12	2.0	2	28%	-15%	-2	0%	6%
O=C(Cn1nc(C(=O)O)c2ccccc2c1=O)Nc1cccc(S(=O)(=O)N2CCCCC2)c1	.	38	.	.	.	3%	-30%
COc1ccccc1CN(Cc1nc2ccccc2c(=O)[nH]1)C(=O)Nc1ccccc1C	5.7	-11	-2.2%	-6%	0	18%	-4%
COc1ccccc1N1CCN(C(=O)c2cccc(S(=O)(=O)N3CCCCCC3)c2)CC1	.	2	-0.2%	.	-6	0%	-27%
Cc1ccc(NC(=O)Cc2c[nH]c3ccccc23)cc1S(=O)(=O)N1CCCCCC1	3.7	-24	0.8%	3%	25	-4%[15.4 µM]	3%
Nc1c(C(=O)CSc2nnnn2-c2ccc(O)cc2)c(=O)[nH]c(=O)n1C1CC1	.	18	5.1%	.	6	7%	13%
Cc1ccc(C)c(NC(=S)NCCN(C2CCCCC2)C2CCCC2)c1	-6.7	-11	.	-9%	-9	?	-7%
CS(=O)(=O)c1cccc(C(=O)OCC(=O)Nc2ccc3c(c2)OCO3)c1	.	13	-0.7%	.	7	?	3%
Fc1cccc(/C=N/Nc2ccc(Cl)nn2)c1	?	-2	-3.2%	-22%	1	-1%	?
CC(NC(=O)c1ccc(Cl)c(S(=O)(=O)NC2CC2)c1)c1ccco1 (stereo not given)	.	16	-1.1%	.	.	-93%[inhibitor]	.
Cc1ccc(-n2c(SCC(N)=O)nnc2-c2ccccn2)cc1C	0.0	29	-7.7%	3%	1	2%	10%
COc1ccc(C(=O)NCCc2nnc3ccc(SCC(=O)N4CCCCC4)nn23)cc1	-0.8	2	-6.4%	11%	3	?	14%
Cc1ccc(CNC(=O)Nc2ccccc2)c(C)c1	1.7	-6	.	-4%	-10	3%[15.4 µM]	6%
NC(=O)N1CCN(C(=O)c2ccco2)CC1	-1.5	34	0.7%	0%	4	?	1%
Cc1ccc(/C=N/NC(=O)c2cccc(NC(=O)c3ccccc3C)c2)o1	-4.3	17	.	10%	-4	23%	-16%
Cc1c(C(C)CCCO)oc(=O)c2c1Oc1c(C)c(C(C)C[C@@H](C)O)oc(=O)c1C2 (stereo not given in full)	.	-11	3.5%	.	2	.	?
CCOC(=O)N1CCN(C(=O)N2CCOCC2)CC1	4.5	5	0.3%	28%	-1	10%[15.4 µM]	9%
O=C(NN=C1CCCCCC1)c1cccnc1	4.4	-11	0.0%	-22%	15	-117%[inhibitor]	8%
Cc1ccc(NC(=O)CCC(=O)N/N=C/c2ccc(O)cc2)cc1	-1.7	22	.	3%	7	-4%	-8%
COc1ccc(N(CC(=O)Nc2ccc(F)cc2)S(=O)(=O)c2ccccc2[N+](=O)[O-])c(OC)c1	-2.1	-14	1.1%	15%	7	4%	-19%
CC(C)C(=O)Nc1nnc(-c2ccco2)s1	2.5	14	-0.8%	2%	-14	-2%[15.4 µM]	-10%
COc1ccc(-c2noc(-c3ccccc3C(=O)NCc3ccco3)n2)cc1	3.2	-11	2.9%	8%	8	1%	-9%
CCC(C)NC(=O)CN1C(=O)c2cccc3cccc1c23 (stereo not given)	0.1	-3	5.2%	4%	3	-17%[15.4 µM]	-6%
ClC(Cl)(Cl)c1nc2ccccc2n2nncc12	-2.1	-27	0.5%	14%	-17	-28%	-1%
CCC(C)(C)NC(=O)C(OC(=O)c1cc2sccc2n1C)c1ccc(OC)cc1 (stereo not given)	0.3	23	-4.7%	10%	2	-4%	-3%
COc1ccccc1/C=C/C(=O)OCC(=O)N1c2ccccc2CC1C (stereo not given)	.	-8	?	.	16	3%	-15%

Screening data (PubChem)
